# Vaccinia stage – Vaccinia orthopox stage-specific inhibition; Vaccinia-infected cells, mCherry/Venus stage reporter fluorescence; stronger effect = lower value; some inactives read as strong as hits; activity change (mCherry), % (concentration not given with the values); actives 0.01% (n = 89,000); AID 1053133;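 active means mCherry past -33% and 40 or more points under the early reporter, replicates agreeing; inconclusive means past -33% without that gap or agreement; tested in A549 cells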;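 further: scaled between vehicle wells and reference inhibitor wells; 23 nL library stock went into each well; one replicate is shown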
# Vaccinia stage Venus – further read-out of Vaccinia stage, marked with its call; activity change (Venus), %; measured here: Venus reporter, other viral stage;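 negative = less Venus signal; first of two replicates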
# An asterisk follows results filed as active; ? = inconclusive; . = no result given. An excerpt. The share of hits here may be higher or lower than overall.
SMILES,Vaccinia stage,Vaccinia stage Venus
C[C@@H]1CCCCO[C@H](CN(C)C(=O)CCCN(C)C)[C@H](C)CN([C@H](C)CO)C(=O)c2cc(NC(=O)c3ccccc3)ccc2O1,12,8
COc1ccccc1CNC(=O)C[C@H]1C[C@@H]2c3cc(NC(=O)CN(C)C)ccc3O[C@@H]2[C@H](CO)O1,6,6
COc1ccc(S(=O)(=O)N(C)C[C@@H]2Oc3c(NS(=O)(=O)c4ccc(C)cc4)cccc3C(=O)N([C@@H](C)CO)C[C@@H]2C)cc1,-24,-18
CCC(=O)N1C[C@H](C)[C@H](OC)CN(C)C(=O)c2cc(NC(=O)C3CCOCC3)ccc2OC[C@H]1C,11,5
C[C@H]1CN([C@@H](C)CO)C(=O)c2c(c3ccccc3n2C)-c2ccccc2CO[C@H]1CN(C)Cc1ccc(O)cc1,-12,-5
OC[C@@H]1[C@@H](c2ccc(-c3ccc(F)cc3)cc2)[C@@H]2CN(Cc3ccccn3)CCCCN12,-32,-17
Cc1ccccc1S(=O)(=O)N1C[C@H](O)COC[C@@H]2O[C@@H](CC(=O)N3CCCCC3)CC[C@H]21,27,13
NCC[C@H]1CC[C@@H](NC(=O)Cc2ccncc2)[C@H](CO)O1,4,10
COc1ccc(NC(=O)N(C)C[C@@H]2Oc3ccc(NS(=O)(=O)c4ccc(OC)cc4)cc3C(=O)N([C@@H](C)CO)C[C@H]2C)cc1,-9,-7
CN1C(=O)c2cc(NC(=O)C3CC3)ccc2OC[C@H]2O[C@H](CC(=O)NCC3CCCCC3)CC[C@@H]21,9,2
C[C@@H]1CN([C@H](C)CO)C(=O)c2c(c3ccccc3n2C)-c2ccccc2CO[C@H]1CN(C)S(=O)(=O)c1ccc(F)cc1,?,.
C=CCN1C(=O)N[C@@H]2c3ccccc3O[C@@]1(COCc1ccc(OC)cc1)[C@@H]2CO,0,-9
O=C(C[C@@H]1CC[C@H](NC(=O)C2CCOCC2)[C@@H](CO)O1)Nc1ccc(-c2ccccc2)cc1,-6,3
N#C[C@@H]1[C@H](c2ccccc2C2=CCCCC2)[C@H](CO)N1C(=O)NC1CCCC1,-11,-4
Cc1noc(C)c1S(=O)(=O)Nc1ccc2c(c1)C(=O)N([C@@H](C)CO)C[C@H](C)[C@H](CN(C)Cc1ccc(-c3ccccc3)cc1)O2,-22,-24
N#C[C@@H]1[C@H](c2ccccc2C2=CCCCC2)[C@@H](CO)N1C(=O)C1CCOCC1,31,23
CC(C)CC#Cc1ccc2c(c1)O[C@H](CN(C)C(=O)NC1CCCC1)[C@H](C)CN([C@@H](C)CO)S2(=O)=O,-35,-30
COCC#Cc1ccc([C@H]2[C@H](CO)N3C(=O)CN(C(=O)CN4CCOCC4)C[C@@H]23)cc1,16,2
CCS(=O)(=O)NCC[C@H]1CC[C@H](NC(=O)C2CC2)[C@@H](CO)O1,8,5
CN(C)CC(=O)N1[C@H](CO)[C@@H](c2ccccc2)C12CN(C(=O)c1ccc(F)cc1)C2,-11,-5
O=C(C[C@@H]1C[C@H]2c3cc(NS(=O)(=O)c4ccc(F)cc4)ccc3O[C@H]2[C@@H](CO)O1)NCc1ccccc1F,3,-3
COCC(=O)Nc1ccc2c(c1)C(=O)N(C)[C@@H]1CC[C@H](CC(=O)NCCCN(C)C)O[C@H]1CO2,-3,0
COCCNC(=O)C[C@@H]1CC[C@H]2[C@@H](COc3ccc(NC(=O)c4cnccn4)cc3C(=O)N2C)O1,18,18
COc1ccc(CN(C)C[C@@H]2OCCCC[C@@H](C)Oc3ccc(NC(=O)Nc4ccc(C(F)(F)F)cc4)cc3C(=O)N([C@H](C)CO)C[C@@H]2C)cc1,-33,-27
CS(=O)(=O)N1[C@@H]2Cn3c(ccc(-c4ccccc4)c3=O)[C@H]1[C@@H](C(=O)NCC1CC1)[C@@H]2CO,-1,-1

# Arranged by SMILES length (lowest first): 10 of the compounds above
SMILES,Vaccinia stage,Vaccinia stage Venus
CCS(=O)(=O)NCC[C@H]1CC[C@H](NC(=O)C2CC2)[C@@H](CO)O1,8,5
C=CCN1C(=O)N[C@@H]2c3ccccc3O[C@@]1(COCc1ccc(OC)cc1)[C@@H]2CO,0,-9
CN(C)CC(=O)N1[C@H](CO)[C@@H](c2ccccc2)C12CN(C(=O)c1ccc(F)cc1)C2,-11,-5
OC[C@@H]1[C@@H](c2ccc(-c3ccc(F)cc3)cc2)[C@@H]2CN(Cc3ccccn3)CCCCN12,-32,-17
O=C(C[C@@H]1CC[C@H](NC(=O)C2CCOCC2)[C@@H](CO)O1)Nc1ccc(-c2ccccc2)cc1,-6,3
COCC(=O)Nc1ccc2c(c1)C(=O)N(C)[C@@H]1CC[C@H](CC(=O)NCCCN(C)C)O[C@H]1CO2,-3,0
CN1C(=O)c2cc(NC(=O)C3CC3)ccc2OC[C@H]2O[C@H](CC(=O)NCC3CCCCC3)CC[C@@H]21,9,2
COc1ccccc1CNC(=O)C[C@H]1C[C@@H]2c3cc(NC(=O)CN(C)C)ccc3O[C@@H]2[C@H](CO)O1,6,6
CC(C)CC#Cc1ccc2c(c1)O[C@H](CN(C)C(=O)NC1CCCC1)[C@H](C)CN([C@@H](C)CO)S2(=O)=O,-35,-30
COc1ccc(CN(C)C[C@@H]2OCCCC[C@@H](C)Oc3ccc(NC(=O)Nc4ccc(C(F)(F)F)cc4)cc3C(=O)N([C@H](C)CO)C[C@@H]2C)cc1,-33,-27

# Following part.
SMILES,Vaccinia stage,Vaccinia stage Venus
Cc1ccc(S(=O)(=O)N(C)C[C@@H]2Oc3c(NC(=O)Nc4ccc5c(c4)OCO5)cccc3C(=O)N([C@@H](C)CO)C[C@@H]2C)cc1,?,.
C[C@H]1CN([C@@H](C)CO)C(=O)c2cc(NC(=O)Cc3ccccc3)ccc2O[C@@H]1CN(C)C,16,5
O=C(C[C@H]1CC[C@@H](NC(=O)C2CCOCC2)[C@H](CO)O1)NCc1ccncc1,12,8
Cc1ccc(-c2ccc([C@H]3[C@H](CO)N4CCCCN(S(=O)(=O)c5ccccc5C)C[C@@H]34)cc2)cc1,-32,-25
CCC(=O)Nc1ccc2c(c1)OC[C@H](C)N(Cc1cccc(F)c1)C[C@H](C)[C@H](OC)CN(C)C2=O,-8,2
C[C@@H]1CN([C@@H](C)CO)C(=O)c2cccc(NC(=O)c3ccc(-c4nccs4)cc3)c2O[C@@H]1CN(C)C,18,0
Cc1noc(C)c1S(=O)(=O)N(C)C[C@@H]1OCCCC[C@@H](C)Oc2ccc(NS(=O)(=O)c3ccccc3)cc2C(=O)N([C@@H](C)CO)C[C@H]1C,-30,-31
C[C@H](CO)N1C[C@H](C)[C@@H](CN(C)C)Oc2cc(-c3ccc(F)cc3)ccc2S1(=O)=O,-22,-14
CCCNC(=O)N1CCC2(CC1)CN(C(=O)CC1CC1)[C@@H](CO)c1[nH]c3cc(OC)ccc3c12,25,6
COc1ccc(S(=O)(=O)N2CCCCN3[C@H](CO)[C@@H](c4ccc(C#CC(C)C)cc4)[C@H]3C2)cc1,?,.
C[C@H](CO)N1C[C@H](C)[C@H](CN(C)Cc2ccc(Oc3ccccc3)cc2)Oc2c(NS(=O)(=O)c3ccccc3)cccc2C1=O,-26,-14
COc1ccc(S(=O)(=O)Nc2ccc3c(c2)CC(=O)N([C@H](C)CO)C[C@@H](C)[C@@H](CN(C)C)O3)cc1,12,-2
CCCNC(=O)Nc1ccc2c(c1)C(=O)N(C)C[C@@H](OC)[C@@H](C)CN(Cc1ccc(-c3ccccn3)cc1)[C@@H](C)CO2,-34,-19
C[C@@H]1CN([C@H](C)CO)C(=O)c2cc(NS(=O)(=O)c3ccc(Cl)cc3)ccc2O[C@@H](C)CCCCO[C@@H]1CN(C)C,-14,-13
COc1ccc(CN(C)C[C@@H]2Oc3c(NC(=O)Nc4ccc5c(c4)OCO5)cccc3C(=O)N([C@@H](C)CO)C[C@H]2C)cc1,-6,-7
CN(C)C(=O)C[C@H]1CC[C@@H](NC(=O)C2CCOCC2)[C@@H](CO)O1,9,17
N#Cc1ccc(-c2ccc([C@H]3[C@H](CO)N4C(=O)CN(C(=O)C5CC5)C[C@@H]34)cc2)cc1,-21,-22
COCCNC(=O)C[C@H]1C=C[C@H](NC(=O)NC2CCCCC2)[C@@H](CO)O1,-2,-3
Cc1noc(C)c1NC(=O)Nc1ccc2c(c1)C(=O)N([C@@H](C)CO)C[C@H](C)[C@H](CN(C)S(=O)(=O)c1ccc(F)cc1)O2,32,24
COc1ccc(S(=O)(=O)Nc2ccc3c(c2)C(=O)N([C@H](C)CO)C[C@H](C)[C@@H](CN(C)C(=O)Nc2ccc4c(c2)OCO4)OCCCC[C@H](C)O3)cc1,1,-1
COc1ccc(-c2cn(CC[C@@H]3CC[C@@H](NC(=O)Cc4ccccn4)[C@H](CO)O3)nn2)cc1,7,5
CO[C@H]1CN(C)C(=O)c2ccc(NC(C)=O)cc2OC[C@@H](C)N(Cc2ccc(F)cc2)C[C@H]1C,-13,-14
CCCN(C)C[C@@H]1OCCCC[C@@H](C)Oc2ccc(NC(=O)CCCN(C)C)cc2C(=O)N([C@H](C)CO)C[C@@H]1C,5,9
C[C@H](CO)N1C[C@H](C)[C@H](CN(C)S(=O)(=O)c2cn(C)cn2)OCCCC[C@H](C)Oc2ccc(NS(=O)(=O)c3ccc(Cl)cc3)cc2C1=O,4,2
O=C(C1CCC1)N1C[C@@H]2[C@H](c3ccccc31)[C@H](CO)N2Cc1ccccc1,-17,-18
SMILES,Vaccinia stage,Vaccinia stage Venus
Cc1noc(C)c1NC(=O)NCC[C@H]1CC[C@@H](NC(=O)c2ccncc2)[C@H](CO)O1,-5,4
C[C@@H]1CN([C@@H](C)CO)C(=O)c2cc(NC(=O)Cn3cnnn3)ccc2O[C@@H]1CN(C)S(C)(=O)=O,15,7
CO[C@@H]1CN(C)C(=O)c2ccc(NC(=O)C3CC3)cc2OC[C@@H](C)N(C(=O)NC(C)C)C[C@H]1C,15,11
C[C@H]1CN([C@@H](C)CO)C(=O)c2cccc(NS(C)(=O)=O)c2O[C@H]1CN(C)Cc1ccc(C(F)(F)F)cc1,7,4
CC=Cc1ccc2n(c1=O)C[C@@H]1[C@@H](CO)[C@H](C(=O)N3CCC(Cc4ccccc4)CC3)N(CC)[C@H]21 (mixture of isomers),?,.
C[C@@H]1CN([C@@H](C)CO)C(=O)c2cc(NS(=O)(=O)c3ccccc3)ccc2O[C@@H](C)CCCCO[C@@H]1CN(C)C(=O)Nc1ccc(F)cc1,-5,-6
CO[C@H]1CC[C@H]2CCOc3c(C#N)cccc3C(=O)N(C)CCCC(=O)N(C)C[C@@H]1O2,5,3
C[C@@H]1CN([C@H](C)CO)C(=O)c2cc(NC(=O)Nc3ccccc3)ccc2O[C@H]1CN(C)S(C)(=O)=O,6,6
COC(=O)[C@H]1[C@H](CO)[C@H]2Cn3c(ccc(C4=CCCCC4)c3=O)[C@H]2N1C(=O)C1CCC1,16,9
Cc1noc(C)c1S(=O)(=O)Nc1ccc2c(c1)C(=O)N([C@@H](C)CO)C[C@H](C)[C@H](CN(C)C(=O)C1CCCCC1)OCCCC[C@H](C)O2,-12,-20
C[C@@H]1CCCCO[C@@H](CN(C)C(=O)c2ccccc2)[C@H](C)CN([C@@H](C)CO)C(=O)c2cc(NS(=O)(=O)c3ccc(Cl)cc3)ccc2O1,-32,-34
C[C@@H]1CN([C@H](C)CO)C(=O)c2cccc(NC(=O)C3CCOCC3)c2O[C@H]1CN(C)C(=O)NC1CCCCC1,28,9
CCCC#Cc1cnc2c(c1)C(=O)N([C@H](C)CO)C[C@H](C)[C@@H](CN(C)C(=O)c1ccccc1)O2,-10,-5
C[C@@H]1CN([C@@H](C)CO)C(=O)c2cc(NC(=O)NC3CCCCC3)ccc2O[C@H]1CN(C)S(=O)(=O)c1ccc(Cl)cc1,-13,-13
C[C@@H]1CN([C@H](C)CO)C(=O)CCCn2cc(nn2)CO[C@H]1CN(C)S(=O)(=O)c1ccc(Cl)cc1,10,18
CCC(=O)N1CC2(CN[C@@H](CO)c3c2c2ccc(OC)cc2n3C)C1,20,14
C[C@@H]1CN([C@@H](C)CO)C(=O)c2cc(NC(=O)C3CCCCC3)ccc2O[C@@H](C)CCCCO[C@@H]1CN(C)C(=O)Nc1ccc(C(F)(F)F)cc1,8,2
C[C@H]1CN([C@@H](C)CO)C(=O)Cc2cc(N(C)C)ccc2O[C@@H]1CN(C)S(C)(=O)=O,2,8
CCC(=O)Nc1ccc2c(c1)C(=O)N(C)C[C@H](OC)[C@@H](C)CN(Cc1ccccc1OC)[C@@H](C)CO2,-10,-6
O=S(=O)(N[C@H]1CC[C@H](CCn2cc(C3(O)CCCC3)nn2)O[C@@H]1CO)c1ccc(Cl)cc1,0,1
C[C@H](NC(=O)C[C@@H]1C[C@H]2c3cc(NC(=O)c4cccnc4)ccc3O[C@H]2[C@@H](CO)O1)c1ccccc1,5,10
O=C(C[C@H]1C[C@H]2c3cc(NC(=O)C4CCC4)ccc3O[C@H]2[C@H](CO)O1)NCc1cccc(F)c1,-3,10
C[C@H]1CN([C@@H](C)CO)C(=O)c2cc(Br)cnc2O[C@H]1CN(C)C(=O)Nc1ccc(F)cc1,14,-1
C[C@H]1CN([C@@H](C)CO)C(=O)c2cccc(NC(=O)Nc3ccccc3)c2O[C@@H]1CN(C)C(=O)NC1CCCCC1,-2,4
C[C@H](CO)N1C[C@H](C)[C@@H](CN(C)C(=O)Nc2ccc(F)cc2)Oc2ccc(NC(=O)CCCCCC(=O)Nc3ccccc3N)cc2CC1=O,6,2
O=C(C[C@@H]1CC[C@H]2[C@@H](COC[C@@H](O)CN2Cc2ccc(Oc3ccccc3)cc2)O1)N1CCOCC1,-5,-17
O=C(C[C@H]1CC[C@H]2[C@@H](COC[C@H](O)CN2C(=O)c2ccccc2)O1)NCCCN1CCOCC1,11,11
COc1ccc2c3c(n(C)c2c1)[C@H](CO)N(C(=O)c1ccc(F)cc1)CC31CN(C(=O)Nc2ccc(F)cc2)C1,-10,-15
C[C@@H]1CN([C@@H](C)CO)S(=O)(=O)c2ccc(C#C[C@@H](C)O)cc2O[C@H]1CN(C)Cc1ccccc1,-6,-12

# Assay outcomes as filed in PubChem.
